CSC inhib = blocks cancer stem cells; actives 1.1% (n = 300,000); inhibition, % at 7.5 µM; cancer stem cell-like cells viability, luminescence;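 active = mean at 75% or more and at least half the replicates too; inconclusive = mean and replicates disagree; tested in HMLE shEcad cells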;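 note: 0% = median of negative and 100% = median of positive control wells; the first replicate is given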
PABP polyA inh = blocks human PABP binding to poly(A) RNA | fluorescence polarization | AID 2014 | inhibition, % at 35 µM | actives 1% (n = 290,000) | P11940;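 active = 50% or more with normal probe brightness, or confirmed in later tests; inconclusive = above 50% with abnormal brightness, or retests that disagree; inactive = below 50% or failed in later tests; about a fifth of its hits are not listed in these tables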;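 note: calls also rest on retests at 20 µM and on dose response follow-up; controls were probe without protein and protein plus probe with vehicle; some compounds called inactive have numbers as strong as hits; many hits fall short of the cut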
Target sequence (P11940 whole entry, looked up): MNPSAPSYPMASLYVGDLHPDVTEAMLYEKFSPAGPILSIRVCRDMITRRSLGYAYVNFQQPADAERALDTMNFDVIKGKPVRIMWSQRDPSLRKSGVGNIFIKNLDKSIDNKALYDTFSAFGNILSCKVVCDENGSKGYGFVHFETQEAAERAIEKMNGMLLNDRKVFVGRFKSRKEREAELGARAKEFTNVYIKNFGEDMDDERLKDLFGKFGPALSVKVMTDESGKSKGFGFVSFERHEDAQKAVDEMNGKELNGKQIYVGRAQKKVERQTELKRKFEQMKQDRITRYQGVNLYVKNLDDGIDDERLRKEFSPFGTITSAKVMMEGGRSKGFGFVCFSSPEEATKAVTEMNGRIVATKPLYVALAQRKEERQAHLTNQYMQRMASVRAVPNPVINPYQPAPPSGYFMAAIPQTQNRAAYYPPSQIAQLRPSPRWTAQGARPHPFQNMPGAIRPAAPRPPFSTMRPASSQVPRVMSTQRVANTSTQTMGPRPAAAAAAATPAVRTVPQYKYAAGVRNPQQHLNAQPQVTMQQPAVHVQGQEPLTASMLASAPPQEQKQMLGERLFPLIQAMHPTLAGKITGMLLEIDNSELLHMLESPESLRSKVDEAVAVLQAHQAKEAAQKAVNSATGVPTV
HIV Env fusion = HIV envelope-mediated fusion inhibition; HeLa-JRFL Env/CEM21 cell fusion, luciferase; inhibition, % at 12.3 µM; actives 1.1% (n = 360,000); AID 651610;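 active = mean replicate inhibition score of at least 50 and every replicate individually at or above 50; inconclusive = only one of the two criteria met; inactive = mean below 50 and not all replicates reaching 50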;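 note: 0% = plate neutral controls and 100% = maraviroc near 300 nM; one replicate is shown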
UUG fidelity = alters start codon recognition fidelity in yeast. activity score, % at 18.7 µM. actives 0.13% (n = 350,000). S. cerevisiae UUG-firefly luciferase reporter, luminescence/redox ratio;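 active = replicate mean at a twofold rise or more, about +100% in these data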;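 note: firefly luciferase made from a UUG start codon reports start codon fidelity; reporter light over untreated wells divided by growth signal over untreated wells; some hits fall short of that in this replicate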
MT1-MMP act inh = MT1-MMP (human) activation inhibition | P50281 | actives 0.061% (n = 360,000) | GFP/RFP ratio change, % at 20 µM | AID 651647 | HT1080 RFP-PRO-GFP cells, GFP/RFP ratio fluorescence, overnight; percent of plate control window, DMSO zero;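 active = GFP/RFP ratio change of at least 30% with cell ATP level not reduced by more than half and red fluorescence within 50% of control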; note: strong numbers were not always called active
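Test system: HT1080 RFP-PRO-GFP cells; Benchmarks: DMSO and RFP-L50D-GFP cell wells; Timing: cells overnight before dosing, compound overnight, 37 °C, 5% CO2; Compound: one 20 µM compound dose with 1% DMSO; Read-out: GFP/RFP fluorescence ratio.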
eIF4H FP inh = inhibitors of RNA binding by human eIF4H | Q15056 | eIF4H fluorescence polarization binding assay | inhibition, % at 35 µM | actives 0.94% (n = 290,000);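 active = 50% or more with normal probe brightness, or confirmed in later tests; inconclusive = above 50% with abnormal brightness, or retests that disagree; inactive = below 50% or failed in later tests; about a fifth of its hits are not listed in these tables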;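 note: calls also rest on retests at 20 µM and on dose response follow-up; 0% = protein and probe with vehicle and 100% = probe without protein; strong numbers were not always called active; many hits fall short of the cut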
Rce1 inhib = yeast Ras-converting enzyme inhibition; Q03530; yeast membranes, quenched prenylated peptide cleavage fluorescence; calls only; actives 0.27% (n = 290,000); AID 2563;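 active = fall in fluorescence gain of 50% or more versus controls, with final raw signal at or below 3038400; inconclusive = same 50% fall but final raw signal above 3038400; inactive = fall in fluorescence gain under 50%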;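 note: plate controls were neutral control wells for no effect and wells lacking membranes for full effect; tested at 10 µM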
Target sequence (Q03530 whole entry, looked up): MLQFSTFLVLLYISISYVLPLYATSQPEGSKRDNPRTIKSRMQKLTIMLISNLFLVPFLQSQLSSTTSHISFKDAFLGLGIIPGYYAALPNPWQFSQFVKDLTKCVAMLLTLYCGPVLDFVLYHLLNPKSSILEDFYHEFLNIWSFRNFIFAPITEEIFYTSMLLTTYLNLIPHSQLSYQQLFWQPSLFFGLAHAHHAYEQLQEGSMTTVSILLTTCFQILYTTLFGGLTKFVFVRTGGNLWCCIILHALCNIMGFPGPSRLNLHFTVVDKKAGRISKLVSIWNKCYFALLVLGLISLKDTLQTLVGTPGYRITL
eIF4H FP inh retest = second read-out of eIF4H FP inh, no call of its own (marks repeat the call); inhibition, %; compound at 20 µM; confirmation average;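 mean of two retest wells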
PABP polyA inh retest = second read-out of PABP polyA inh, no call of its own (marks repeat the call); inhibition, %; compound at 20 µM; confirmation repeats;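 mean of two retest wells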
MT1-MMP act inh RFP = recorded beside MT1-MMP act inh, whose call it bears; RFP signal change, %; measured here: RFP expression control read;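 0 = vehicle wells; hits needed this value within 50% of zero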
Starred values were filed as active, the others as inactive; i = inactive; ? = inconclusive; . = not tested or not shown.

SMILES	CSC inhib	PABP polyA inh	HIV Env fusion	UUG fidelity	MT1-MMP act inh	MT1-MMP act inh RFP	eIF4H FP inh	Rce1 inhib	others
O=C(N/N=C/C(Br)=C/c1ccccc1)C(O)c1ccccc1 (stereo unspecified)	7	1	-9	-13	3	3	-8	i
Cc1cc(/C=N/NC(=O)c2nn(C)cc2Cl)c(C)n1-c1cccc(Br)c1	12	0	.	-13	-2	-1	-8	i
Nc1nonc1-n1nnc(C(=O)c2ccccc2)c1-c1ccccc1	14	-2	.	-9	-4	-4	-2	i
O=C(NCCc1ccc(C(F)(F)F)cc1)c1ccc(Cl)nc1	-4	2	0	5	5	0	-11	i
CCOC(=O)c1c(C)[nH]c(C(=O)COC(=O)Cn2cc(C(F)(F)F)ccc2=O)c1C	-18	.	.	1	-3	0	.	.
CN1CCN(c2ccc(-c3cccc(NC(=O)COc4ccccc4)c3)nn2)CC1	.	.	-8	-26	-9	-5	.	i
CC1(C)NC(C)(C)c2nonc2/C1=N\O	4	-4	0	-15	1	3	-1	i
COc1ccc(CN2CCC(Cc3ccccc3)CC2)c(C)c1C	17	-1	5	-2	-3	1	0	i
CC(C)NC(=O)C1CCCN(S(=O)(=O)c2ccc(-n3cnnn3)cc2)C1 (stereo unspecified)	-8	3	-32	-19	2	-1	0	i
CC(=O)Nc1ncc(N=Nc2cccc(C(F)(F)F)c2)s1	11	1	-23	-21	8	3	6	i
COc1ccc(NC(=O)c2ccc(C)cc2)c(OC)c1	1	-9	-75	.	-4	0	28	i
Cc1c(C(=S)Nc2ccccc2)cnn1-c1ccccc1	-4	-6	-35	-15	7	-9	-3	i
CC1CCN(C(=O)COc2ccc(S(=O)(=O)N3CCOCC3)cc2)CC1	-3	.	2	8	-3	-2	.	i
COc1ccc(C2(C(=O)NCc3ccccc3Cl)CCOCC2)cc1OC	0	-6	1	-10	0	2	-2	i
[N-]=[N+]=NCCN1CCN(Cc2ccccc2)CCC1=O	8	10	-8	-11	5	2	7	i
CSC1=C(C#N)C(c2ccccc2Cl)C(C(C)=O)=C(C)N1 (stereo unspecified)	5	8	.	-5	5	-2	-11	i
COc1ccc(CNC(=O)CSc2nnc(Cn3nnc4ccccc43)n2C)cc1	-13	-4	.	-18	-1	3	-2	i
O=C(Nc1ccc2c(c1)OCCO2)c1cc2ccccc2o1	17	-12	-210	-43	0	-3	-5	.
O=C1NN(c2ccccc2)C(=O)/C1=C/c1cccs1	6	-1	-6	.	.	.	3	.
CCN(CC)S(=O)(=O)c1ccc(NC(=O)c2cnc(C)cn2)cc1	-3	-6	-2	-13	1	-2	-10	i

Quoted at random: four compounds from above
SMILES	CSC inhib	PABP polyA inh	HIV Env fusion	UUG fidelity	MT1-MMP act inh	MT1-MMP act inh RFP	eIF4H FP inh	Rce1 inhib	others
Cc1c(C(=S)Nc2ccccc2)cnn1-c1ccccc1	-4	-6	-35	-15	7	-9	-3	i
COc1ccc(C2(C(=O)NCc3ccccc3Cl)CCOCC2)cc1OC	0	-6	1	-10	0	2	-2	i
CN1CCN(c2ccc(-c3cccc(NC(=O)COc4ccccc4)c3)nn2)CC1	.	.	-8	-26	-9	-5	.	i
CSC1=C(C#N)C(c2ccccc2Cl)C(C(C)=O)=C(C)N1 (stereo unspecified)	5	8	.	-5	5	-2	-11	i

Other entries
SMILES	CSC inhib	PABP polyA inh	HIV Env fusion	UUG fidelity	MT1-MMP act inh	MT1-MMP act inh RFP	eIF4H FP inh	Rce1 inhib	others
CCCCn1c(N)c(N(CCOC)C(=O)c2ccc(OCc3c(C)noc3C)cc2)c(=O)[nH]c1=O	-10	.	.	-17	-4	-1	.	.
Cc1ccccc1-n1c(Cn2c(=O)sc3ccccc32)nnc1SCC(=O)NCC1CCCO1 (stereo unspecified)	-8	0	-20	-7	0	3	1	.
CC(C)N(Cc1nc(-c2ccccc2)no1)C(=O)Cc1ccccc1	-18	5	13	-1	-5	-4	2	i
CC(=O)c1cccc(N2C(=NC(=O)C3CCCCC3)SC3CS(=O)(=O)CC32)c1 (stereo unspecified)	-12	6	11	-1	0	1	-4	i
CN(c1ccc(OCC(=O)OCC(=O)Nc2ccc(F)cc2)cc1)S(=O)(=O)c1ccc(Cl)cc1	7	-12	-26	10	4	2	8	i
CCCCSCCCNC(=O)CS(=O)Cc1nc(-c2cccc(C)c2)oc1C (stereo unspecified)	-13	-5	14	-4	1	4	5	i
CCCCc1ccc(S(=O)(=O)NNC(=S)NCc2ccco2)cc1	0	0	16	-22	-12	-1	2	i
O=C(Nc1ccc(F)cc1)C(c1ccccc1)N1CCN(S(=O)(=O)c2ccccc2)CC1 (stereo unspecified)	-1	-19	-75	.	-3	1	-14	i
COC(=O)C(NC=O)C(O)(Cc1ccccc1)C(F)(F)F (stereo unspecified)	-4	0	-66	-20	-1	2	-3	.
Cc1cccc([C@@H]2[C@@H]3C(=O)N(Cc4ccccc4)C(=O)[C@@H]3[C@]3(Cc4ccccc4)C(=O)N(c4ccccc4)C(=O)N23)c1	12	.	-64	18	-1	3	.	i
COCCN(CC(=O)Nc1cccc(C)c1C)C(=O)C1(c2ccccc2)CC1	1	.	0	9	-2	2	.	.
COC(=O)C1(C)NC(c2ccco2)C2C(=O)N(c3ccc(C)cc3)C(=O)C21 (stereo unspecified)	-7	13	-12	.	-1	2	4	.
C/C(=N\N=C(/N)SC1CC(=O)N(c2ccccc2)C1=O)c1cccs1 (stereo unspecified)	12	-6	.	-21	10	-2	-11	i
Nc1ccn(C2CC(O)C(CO)O2)c(=O)n1 (stereo unspecified)	-10	-2	-4	-14	-2	2	-12	i
COC(=O)c1ccc(OC(=O)C2CC(=O)N(c3cccc(C)c3)C2)cc1 (stereo unspecified)	0	8	7	-2	2	1	12	i
CC1CCN(C(=O)C2CCN(S(=O)(=O)c3cnc[nH]3)CC2)CC1	16	0	-25	-16	3	8	10	i
CCc1ccc(C2c3[nH]c4ccccc4c3CCN2C(=O)c2ccc(=O)n(C)n2)cc1 (stereo unspecified)	21	-11	42	-12	0	-12	-9	i
COc1ccc(S(=O)(=O)N2CCC3CC2c2c(-c4ccc(C(F)(F)F)cc4)cccc23)cc1 (stereo unspecified)	.	.	6	5	-2	-12	.	.
NC(CCCCCP(=O)(c1ccccc1)c1ccccc1)C(=O)O (stereo unspecified)	0	-36	.	.	.	.	-21	i
O=C(Nc1ccc(N2CCCCC2)cc1)c1ccc2c(c1)OCCO2	2	-2	-108	-13	4	-14	-5	i
Cc1sc2nc(SCC(=O)NCCO)n(C)c(=O)c2c1C	-21	-7	-85	0	4	4	-6	i
O=C(Nc1ccccc1C(=O)O)c1cc(S(=O)(=O)N2CCOCC2)cs1	-12	?	-111	.	0	5	-16	i
O=C(N/N=C/c1cc(Br)ccc1OC(=O)c1ccc(Br)cc1)c1ccncc1	.	14	7	-17	-4	-9	2	i
CCCNC(=O)C1(C)CCN1C(=O)c1ccccc1CCc1ccccc1 (stereo unspecified)	.	.	27	-27	3	2	.	.
Cc1c(C(=O)Nc2ccccc2)cn2c(nc3ccccc32)c1C#N	-3	-9	5	.	-1	-3	-6	i
Cc1cc(C)nc(Nc2ccc(N3CCOCC3)cc2)n1	-14	-6	.	.	1	1	3	i
Cc1ccccc1C(=O)NNC(=O)C1CCN(C(=O)Nc2ccccc2)CC1	-6	.	2	2	3	2	.	i
Cc1ccc(C(=O)NC2CCN(CC(=O)Nc3cccc([N+](=O)[O-])c3)CC2)cc1	-5	-3	2	.	-2	0	2	i
COc1ccc(N(CC(=O)N/N=C(\C)CCc2ccccc2)S(=O)(=O)c2ccc(C)cc2)cc1	-5	13	4	-8	5	7	-2	i
NC(=O)CN1C(=O)C(=O)N(Cc2ccccc2)C1=O	-6	32	-12	.	0	3	4	i
CN1C(=O)c2ccc(C(=O)NCc3ccccn3)cc2C1=O	-1	-5	7	-6	-2	1	-8	i
CC1CCCN(CCC(=O)Nc2ccc3c(c2)CCC3)C1 (stereo unspecified)	0	5	-33	4	-2	0	-3	i
CCOc1ccccc1NC(=O)CCN(c1ccc(C)cc1)S(=O)(=O)c1ccccc1	18	2	.	.	-8	-7	-6	i
Cc1ccc(OCC(=O)Nc2cccc(S(=O)(=O)N3CCCCCC3)c2)cc1C	-7	.	2	-24	6	-6	.	i
CCCN(CC(=O)Nc1ccccc1C)C(=O)C1CCN(C(=O)Nc2ccccc2)CC1	-8	.	-1	.	8	4	.	i
O=C(Nc1cccc(NC(=O)c2ccc(Cl)cc2)n1)c1ccc(Cl)cc1	-1	-4	-15	-21	-1	2	-7	i
CCCCc1nc2cc(C(=O)N(C)C(C)c3ccccn3)ccc2o1 (stereo unspecified)	.	3	3	-13	4	0	-1	i
COc1ccc(C2CC(O)(c3ccccc3)Oc3cc(OC)ccc32)cc1 (stereo unspecified)	54	-2	-8	-22	-5	-7	-10	i
COc1ccc(C(=O)C2CCCN(C(=O)c3cccc(Cl)c3F)C2)cc1OC (stereo unspecified)	-3	0	-6	-6	1	-8	1	i
COC(=O)Cn1c(=O)c(C(=O)CCl)c(N)n(Cc2ccccc2)c1=O	11	1	9	-8	-3	-1	1	i
CCOP(=O)(OCC)C(NC(=O)c1ccc(OC)c(OC)c1)c1ccccc1 (stereo unspecified)	-5	-8	4	.	0	0	-3	i
CCOC(=O)c1cc(-c2ccc(OC(F)F)cc2)nc2c1c(=O)[nH]c(=O)n2C	18	3	10	-14	1	-1	-11	i
Cc1ccc2c(COC(=O)c3ccccc3Cl)cc(=O)oc2c1	3	1	-79	-4	.	.	27	i
Cc1ccc(C(=O)Nc2ccncc2)cc1[N+](=O)[O-]	-13	-4	-13	-29	2	-8	-3	i
Cc1nnc(SCCn2c(N(C)Cc3ccccc3)nc3c2c(=O)n(C)c(=O)n3C)s1	-15	.	11	-4	-7	-3	.	i
COCCNC(=O)c1cc(S(=O)(=O)N2CCC3(CC2)OCCO3)ccc1F	.	.	31	-7	5	-1	.	.
COc1ccc(OC)c(N/C=C2/CCCCC2=O)c1	.	6	-4	-3	12	3	1	i
Cc1ccc(S(=O)(=O)N2CCN(C(=O)N(C)C)CC2)cc1C	.	-2	.	-6	4	1	-2	i
O=C(Nc1ccccc1)C1=C(O)CC(c2ccco2)CC1=Nc1ccccc1 (stereo unspecified)	-5	-4	-20	-18	-4	0	20	i
Cc1oc2c(CN3CCCCC3)c(O)ccc2c(=O)c1-c1ccc(Cl)cc1	-15	-3	18	-1	-2	-2	-10	i
CN(c1ncnc(N)c1[N+](=O)[O-])C1CCCCC1	-9	7	44	-21	-17	-8	1	i
CSc1ncccc1C(=O)OCC(=O)NC(C)(C)C	.	79	4	2	4	-2	-2	i	eIF4H FP inh retest=13;PABP polyA inh retest=15
O=C(NNC(=O)c1ccccc1F)c1ccc2[nH]c(=O)c(=O)[nH]c2c1	-7	11	-16	-3	1	6	-5	i
C[C@]12C=CC(=O)C=C1CC[C@H]1[C@@H]3C[C@@H](O)[C@](O)(C(=O)CO)[C@@]3(C)C[C@H](O)[C@@]12F	-11	-8	i	-12	2	3	2	i
Cc1ccc(NC(=O)CSc2nnc(NC(=O)C(C)C)s2)c(C)c1	-5	4	-2	-14	0	-2	3	i
O=C(COc1ccccc1Cl)N(Cc1ccco1)C1CCS(=O)(=O)C1 (stereo unspecified)	-15	14	-38	1	3	0	1	i
